Assay outcomes deposited in PubChem BioAssay by National Center for Advancing Translational Sciences (NCATS).
Cruzain Triton: inhibitors of Trypanosoma cruzi cruzain with detergent; P25779; purified cruzain, Z-FR-AMC fluorescence, 0.01% Triton; Potency, µM, without a hit: max response, negative = inhibition, hits mostly inhibitors; 200,000 tested, 0.43% active; AID 1478;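 note: plate controls were neutral wells for no effect and buffer without enzyme for full effect; nearly all actives have a fitted effect of over 40% in size; top concentration of the series not given in the record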
Target sequence (P25779 123-467 limits assumed): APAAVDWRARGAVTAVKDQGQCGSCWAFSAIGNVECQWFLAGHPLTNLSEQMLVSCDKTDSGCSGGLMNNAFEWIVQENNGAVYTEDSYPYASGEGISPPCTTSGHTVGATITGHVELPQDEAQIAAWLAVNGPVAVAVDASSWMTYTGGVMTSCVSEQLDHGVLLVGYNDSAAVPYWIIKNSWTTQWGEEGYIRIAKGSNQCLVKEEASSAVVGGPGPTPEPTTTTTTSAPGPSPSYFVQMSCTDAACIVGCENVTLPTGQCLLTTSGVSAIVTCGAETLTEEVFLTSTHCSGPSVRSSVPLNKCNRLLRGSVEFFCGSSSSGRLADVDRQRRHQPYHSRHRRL
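Detergent-containing run (0.01% Triton X-100) in acetate buffer pH 5.5 with 5 mM DTT: enzyme at 1.5 nM final, 15 min compound preincubation at room temperature, then 2 uM Z-FR-AMC substrate. Activity taken as 60 s fluorescence increase at 360/450 nm.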
2A StopGo: FMDV 2A StopGo reporter, luciferase signal; human cells with a luciferase reporter of 2A StopGo recoding; control for the full effect not named in the record; Potency, µM (highest dose often 57.9 µM), inactives show top-dose signal change, negative = less light; 410,000 tested, 1.2% active; AID 1159524; active = well fitted falling curve with a large enough effect; inconclusive = small, poorly fitted or top-dose-only effect; inactive = no such curve, though single readings can be large or run the other way; tested in HEK293T cells; note: % is set by controls: 0 for no effect and ±100 for the full control effect; nearly all actives have a fitted effect of over 45% in size; luciferase light after 4 h
Cruzain noTriton: cruzain (T. cruzi) inhibition without detergent; Potency, µM, inactives show max response, negative = inhibition, actives largely listed as inhibitors; AID 1476; 200,000 tested, 2.3% active; purified cruzain, Z-FR-AMC fluorescence, no detergent; P25779;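 note: plate controls were enzyme without inhibitor for no effect and buffer without enzyme for full effect; nearly all actives have a fitted effect of over 40% in size; top concentration of the series not given in the record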
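Purified cruzain at 1.5 nM, pre-incubated 15 min with compound at room temperature in 100 mM sodium acetate pH 5.5, 5 mM DTT, 0.00005% Triton X-100. Reaction started with 2 uM Z-FR-AMC; AMC fluorescence increase over 60 s gives rate.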
RE007 growth inh: less growth of the S. pombe RE007 Vpr strain | S. pombe RE007 Vpr strain, BacTiter-Glo ATP luminescence, 24 h; control for the full effect not named in the record | Potency, µM (highest dose often 92.2 µM), for the others: at the top dose activity change, negative = less growth | 360,000 tested, 0.21% active; active = well fitted falling curve with a large enough effect; inconclusive = small, poorly fitted or top-dose-only effect; inactive = no such curve, though single readings can be large or run the other way;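 note: % is set by controls: 0 for no effect and ±100 for the full control effect; nearly all actives have a fitted effect of over 50% in size; the assay follows cell death caused by Vpr and the record does not say whether a fall means rescue or toxicity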
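Fission yeast RE007 carrying one integrated HIV-1 vpr copy, seeded at OD 0.01 in PMG+AL medium with 23 nL pinned compound. Grown 24 h at 30 degrees; viability read by BacTiter-Glo luminescence after 5 min.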
NS1 inh: inhibitors of influenza NS1 protein function | 270,000 tested, 0.4% active | AID 2326 | Potency, µM (series often up to 46.1 µM), without a hit: top-dose activity, positive = more growth | S. cerevisiae slowed by influenza A NS1, growth recovery by OD600; active means well fitted rising curve with a large enough effect; inconclusive means small, poorly fitted or top-dose-only effect; inactive means no such curve, though single readings can be large or run the other way; note: nearly all actives have a fitted effect of over 50% in size
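OD600 was taken as the measure of yeast growth restored by compound in an NS1-expressing S. cerevisiae strain. Cells had been washed out of glucose medium and diluted 1:100 into galactose -URA medium, pH 6.0.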
MARV entry inh: blocks Marburg virus binding to or entry into cells | Marburg virus pseudotyped entry inhibition, cell reporter; control for the full effect not named in the record; about a third of the inactives were read at about 46 µM | Potency, µM (top dose mostly 37.8 µM), without a hit: at the top dose activity change, negative = inhibition, hits mostly inhibitors | 300,000 tested, 1.8% active | AID 540276; active = well fitted inhibition curve with a large enough effect; inconclusive = small, poorly fitted or top-dose-only effect, or effect the other way; inactive = flat fitted curve, though single readings scatter; tested in HEK293 cells; about a fifth of its hits are not listed in these tables; note: % is set by controls: 0 for no effect and ±100 for the full control effect; luciferase read-out
SARS PLpro yeast: SARS-CoV PLP inhibition in yeast; S. cerevisiae expressing SARS-CoV PLpro, growth rescue; control for the full effect not named in the record; Potency, µM (doses to about 32.9 µM), inactives show top-dose activity, positive = growth rescue; 330,000 tested, 0.19% active; active means well fitted rising curve with a large enough effect; inconclusive means small, poorly fitted or top-dose-only effect; inactive means no such curve, though single readings can be large or run the other way; note: 0% is about no effect; nearly all actives have a fitted effect of over 55% in size; growth read by luminescence after 48 h
Lassa entry inh: Lassa virus entry inhibition; 300,000 tested, 1.2% active; Lassa virus pseudotype entry inhibition, cell reporter; control for the full effect not named in the record; Potency, µM (titrated, usually from 37.9 µM), for inactives: top-dose activity change, negative = inhibition, hits mostly inhibitors; AID 540256; active means well fitted inhibition curve with a large enough effect; inconclusive means small, poorly fitted or top-dose-only effect, or effect the other way; inactive means flat fitted curve, though single readings scatter; tested in HEK293 cells; note: % is set by controls: 0 for no effect and ±100 for the full control effect; nearly all actives have a fitted effect of over 50% in size; luciferase read-out
Active calls of the source: *; ? = inconclusive; nt = not tested or not shown; & = joins results of further samples; [ ] = remark or other dose. Unless noted, calls come from the whole dose curve; as a rule, active = well fitted curve in the direction sought with a large enough effect; inconclusive = small, poorly fitted or top-dose-only effect, or another doubt; inactive = no such curve, though single readings can be large; an effect the other way counts as inactive or inconclusive. Potency is the fitted concentration of half-maximal effect.

Each structure is followed by: Cruzain Triton, 2A StopGo, Cruzain noTriton, RE007 growth inh, NS1 inh, MARV entry inh, SARS PLpro yeast, Lassa entry inh
CCC12CN3CC(CC)(CN(C1)C3c1cc(Br)ccc1OC)C2=O (stereo not drawn)
 : 0.1%, -14%, 0%, nt, nt, -3%[46.1 µM], nt, 15%[46.1 µM]
Brc1ccc(-c2nnc3sc(CNC4CCCC4)cn23)cc1
 : 0.5%, 0%, 3%, 6%, 0%, 16%, 2%, -16%
Nc1cc(=O)[nH]c(SCC(=O)Nc2ccccc2-c2ccccc2)n1
 : nt, 5%, nt, 1%, nt, 0%[46.1 µM], 0%, 1%
CCCCNC(=O)c1cn(CC)c2cc(N3CCN(C)CC3)c(F)cc2c1=O
 : nt, 4%, nt, -5%, -1%, nt, -1%, nt
O=C(Nc1ccc(Br)cc1)Nc1cnccn1
 : nt, 23%, nt, 12%, -36%, nt, -14%, nt
COc1cc(OC)cc(-c2cc3nc(C)c(CCC(=O)NCc4ccc(Cl)cc4)c(C)n3n2)c1
 : -9.0%, 13µM*, ?, nt, nt, 4.5µM*, nt, ?
CC(OC(=O)c1ccc(NS(=O)(=O)c2cccs2)cc1)C(=O)N(C)C1CCCCC1 (stereo not drawn)
 : -7.0%, 0%, 5%, 1%, 15%, -35%[46.1 µM], 24%, -27%
CCN(CC)C(=O)c1ccc2nc(-c3ccccc3)c(-c3ccccc3)nc2c1
 : -3.1%, -2%, ?, 6%, -32%, -9%, -19%, -20%
CC1(C)CC(=O)C=C(NCCO)C1
 : 1.2%, -1%, 14%, 10%, 4%, -1%&-1%, 4%, 5%
COC(=O)c1sccc1NC(=O)CSc1ccccc1NC(=O)CNC(C)C
 : nt, 0%, nt, -1%, -2%, ?, 0%, -14%[46.1 µM]
COC(=O)c1sc(SC)c2c1CC(C)(C)C/C2=N/O
 : nt, -12%, nt, -6%, 4%, -9%[46.1 µM], 0%, 2%
CCOC(=O)C1=C(COC(=O)COc2ccc(OCC)cc2)NC(=O)NC1C (stereo not drawn)
 : nt, -14%, nt, 10%, nt, 18%, 4%, 4%
CN1CCN(C(=O)CCCOc2ccc(Cl)cc2Cl)CC1
 : 1.6%, -1%, -4%, 3%, 10%, -29%, 0%, -25%
Cc1ccc(C)c(OCCCNCc2ccccc2)c1
 : nt, 1%, nt, -18%, -11%, nt, -2%, nt
COCCNC(=O)c1c[nH]c2ccc(S(=O)(=O)Nc3ccc(F)cc3F)cc2c1=O
 : -6.3%, 12%&34%, -5%, -4%, 6%, 7%&7%[46.1 µM], -2%, 18%[46.1 µM]
O=C(CCN1CCN(Cc2ccccc2)CC1)Nc1ccc(OCc2ccccc2)cc1
 : -2.9%, ?, 11%, 8%, -10%, ?, -13%, -23%
CC1CCN(C(=O)CSc2ccc(-c3cccnc3)nn2)CC1
 : nt, -14%, nt, 0%, 3%, 19%, -3%, -14%
O=C(Nc1nccs1)c1ccccc1Br
 : nt, 41%[activator], nt, -11%, 25%, nt, -1%, nt
CCc1cccc(C)c1NC(=S)N1CCCC1C(=O)O (stereo not drawn)
 : -1.8%, -16%, 15%, -12%, 1%, 17%, 3%, 3%
CCOC(=O)CCC(=O)OCC(=O)NC(C)C1CC2CCC1C2 (stereo not drawn)
 : 9.8%, -1%, 15%, 20%, -1%, -1%, 12%, 8%
c1ccc2c(CNCCN3CCOCC3)cccc2c1
 : 4.3%, -17%, 6%, -21%, 7%, 29%, 2%, -3%
Cc1cc(C(=O)COC(=O)C2=NN(c3ccccc3)C(=O)CC2)c(C)n1CC(F)(F)F
 : nt, -6%, nt, 5%, nt, -1%[46.1 µM], 0%, 11%[46.1 µM]
Cc1ccccc1[N+](=O)[O-]
 : 3.6%, -24%, -4%, 3%, nt, nt, -6%, nt
COc1cc(/C=C/C(=O)O)cc(S(=O)(=O)N2CCN(S(=O)(=O)c3ccc(Cl)cc3)CC2)c1OC
 : nt, 0%, nt, 5%, 13%, nt, -4%, nt
N#C/C(=C\c1ccccc1)C(=O)Nc1ccccn1
 : nt, 21%, nt, 1%, -1%, -28%[46.1 µM], 1%, 2%[46.1 µM]
CCOc1ccc(-c2nc(SCC(=O)Nc3cc(F)ccc3F)n3[nH]c(=O)cc3n2)cc1
 : 2.4%, -15%, -9%, nt, nt, nt, nt, -19%[46.1 µM]
C/C(=N/NS(=O)(=O)c1ccc(C)cc1)[C@H]1C[C@@H]1c1ccccc1
 : nt, 0%, nt, -6%, -2%, 2%[46.1 µM], -1%, 1%
COc1ccc(Nc2nc(Cl)nc(NCc3ccco3)n2)cc1
 : -3.3%, -30%, ?, 5%, 12%, -1%, -3%, -14%
O=C(NCCc1ccccc1)C(=O)N/N=C/c1ccccc1C(F)(F)F
 : -8.8%, nt, ?, 6%, 3%, 2%, 0%, 6%
O=C(N/N=C/c1cccnc1)c1ccccc1[N+](=O)[O-]
 : 5.3%, 0%, -1%, 3%, 7%, 3%, -4%, 11%
Cc1cccc(NC(=O)CSc2nc(C3CCCC3)nc3c2c(=O)n(C)c(=O)n3C)c1C
 : 2.5%, -13%, -4%, nt, nt, nt, nt, 11%[46.1 µM]
C[C@H](NC(=O)CCC(=O)N1C[C@H]2C[C@H](C1)c1cccc(=O)n1C2)c1ccccc1
 : nt, -14%, nt, -5%, -8%, nt, -1%, nt
COc1ccc(C(=O)CN2C(=O)NC3(CCCc4ccccc43)C2=O)cc1OC (stereo not drawn)
 : -5.1%, -16%, 3%, -11%, 6%, 19%&19%, 4%, 5%
O=C(NCc1ccco1)c1ccc(Oc2ccccc2)cc1
 : 0.1%, 53%[activator], -21%, -14%, -114%, 0%, -18%, ?
COc1ccc(/C=C/C(=O)NCc2nc3ccccc3[nH]2)cc1OC
 : nt, 14%, nt, 2%, 5%, 2%[46.1 µM], 2%, 3%
Cc1ccccc1NS(=O)(=O)c1cc(C(=O)N2CCCC2)ccc1C
 : 4.1%, 9%, 3%, -3%, -7%, -2%, -3%, 16%
CN(C(=O)CO/N=C/c1ccc(OC(F)F)cc1)C1CCS(=O)(=O)C1 (stereo not drawn)
 : nt, -7%, nt, 0%, nt, 13%, 0%, -9%[46.1 µM]
COc1ccc(C(=O)Nc2nc3ccccc3c(=O)[nH]2)cc1
 : -1.7%, -3%, 1%, -5%, -54%, ?, 2%, ?
O=C(NCc1ccco1)c1nc2ncccn2n1
 : 6.0%, -22%, -1%, -4%, -8%, 1%, nt, 21%
O=C(NC(=S)Nc1cccc2cccnc12)c1ccccc1
 : 3.3%, -23%, -11%, -17%, 6%, 6%, -4%, 1%
Cc1nnc(C)n1/N=C/c1cccc(Oc2ccccc2)c1
 : -0.2%, nt, 10%, 5%, -15%, 23%, 10%, -1%
CCOC(=O)CN1C(=O)S/C(=C/c2cc(C)n(-c3ccccn3)c2C)C1=O
 : -4.8%, 23%, -5%, -1%, 10%, 7%[46.1 µM], 0%, 1%
COc1ccc(/C(O)=C2/C(=O)C(=O)N(CCCN(C)C)C2c2ccc(Cl)cc2)cc1OC (stereo not drawn)
 : nt, -22%, nt, -1%, -8%, 0%&14%, nt, -1%
NC(=S)N=Nc1c(O)n(CC(=O)Nc2ccccc2)c2ccccc12
 : nt, -7%, nt, 8%, 5%, nt, -1%, nt
Cc1cc(C)nc(CCNC(=O)c2cc(COc3ccc(F)cc3F)on2)n1
 : nt, 8%, nt, -9%, 4%, 9%[46.1 µM], -1%, 15%
Cc1ccc(CCC(=O)Nc2ccc([N+](=O)[O-])cc2Cl)o1
 : nt, 22%, nt, 3%, -62%, ?, -11%, -3%
Cc1ccc(/C=C/c2onc(C)c2S(=O)(=O)N2CCC(C(=O)N3CCC(N(C)C(C)C)CC3)CC2)cc1
 : -4.6%, -7%, 8%, nt, nt, nt, nt, -29%[46.1 µM]
Cc1ccc(N2CCN(C(=O)c3cccs3)CC2)c(C)c1
 : nt, -21%, nt, -18%, -27%, ?, -6%, 14%[46.1 µM]
Cc1ccc(NC(=O)COc2ccc(S(=O)(=O)N3CCOCC3)cc2)cc1
 : -2.1%, 0%, -4%, 1%, -11%, ?, 0%, -5%
CC1=CC(=C2C(=O)c3ccccc3C2=O)C=C(C)O1
 : -0.6%, 30%[activator], -20%, -12%, -4%, -10%, 2%, 9%
Cc1nc2sc(C(c3cccc(F)c3)N3CCC(O)CC3)c(O)n2n1 (stereo not drawn)
 : 4.9%, -3%, -6%, 11%, -6%, -3%[46.1 µM], -2%, 6%
Cc1cccc(NC(=O)CSc2nnc([C@@H](N)Cc3ccccc3)o2)c1C
 : -4.7%, -16%, 9%, -13%, 13%, 9%, 1%, 1%
C/C(=N\Nc1ccc(F)cc1F)c1ccc(Br)s1
 : nt, 6%, nt, 4%, nt, 1%[46.1 µM], -2%, 5%[46.1 µM]
CCOc1ccccc1NC(=O)Cn1cnc2c(cnn2-c2ccc(C)c(C)c2)c1=O
 : -1.7%, -29%, 2%, 8%, -10%, 1%, 4%, -8%
CCCCn1c(N)c(N(CCOC)C(=O)CSCc2cccc(C)c2)c(=O)[nH]c1=O
 : nt, -24%, nt, -21%, nt, 17%, 2%, -2%
O=C(Nc1ccn(Cc2ccc(Cl)cc2)n1)c1ccc2c(c1)OCO2
 : -2.3%, -2%, -6%, -26%, -131%, 16%, nt, 4%

An excerpt of these results, with each value named:
O=C(CCN1CCN(Cc2ccccc2)CC1)Nc1ccc(OCc2ccccc2)cc1
  Cruzain Triton: -2.9%	2A StopGo: ?	Cruzain noTriton: 11%	RE007 growth inh: 8%	NS1 inh: -10%	MARV entry inh: ?	SARS PLpro yeast: -13%	Lassa entry inh: -23%

CC1CCN(C(=O)CSc2ccc(-c3cccnc3)nn2)CC1
  Cruzain Triton: nt	2A StopGo: -14%	Cruzain noTriton: nt	RE007 growth inh: 0%	NS1 inh: 3%	MARV entry inh: 19%	SARS PLpro yeast: -3%	Lassa entry inh: -14%
